PrP 5UTR inh: inhibition of PrP 5' UTR reporter expression; cell-based PrP 5' UTR mRNA reporter, plate reader; inhibition, % (no concentration beside the values); 340,000 compounds, 0.35% hits; AID 488862;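 active = every replicate at 50% or more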;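 also: 0 = median of the neutral control wells; tested in H4 reporter cells; numbers are from one replicate; inactives centre near -14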
Mtb hypoxia inh: Mtb hypoxia fluorescent reporter inhibition; M. tuberculosis hypoxia-regulated fluorescent reporter, fluorescence; fluorescence inhibition, % (test concentration not listed); 300,000 compounds, 0.1% hits; AID 1159583;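 active = 35 to 45% if threefold the growth effect, above 45% if 1.5-fold the growth effect; inactive = the rest, general growth blockers included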;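 also: wells of about 50 µL received 100 nL stock; 0% = vehicle wells and 100% = reference inhibitor wells; whole bacteria with a GFP reporter of the hypoxia response; strong numbers were not always called active; many hits fall short of the cut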
RN4220 kill: kills Staphylococcus aureus RN4220; S. aureus RN4220 growth, OD600, 16 h; inhibition, % (test concentration not listed); 330,000 compounds, 0.33% hits; AID 1259311;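 active = z-score of -3 or lower and OD600 up to 0.18 on both plates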;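 also: plate controls were untreated cells for no effect and reference antibiotic for full effect; stock transfer was 100 nL into about 80 µL; one replicate is shown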
Sa ugtP lethal: kills S. aureus RN4220 lacking UgtP. S. aureus RN4220 ugtP deletion, OD600 growth, 16 h; some inactives read as strong as hits. growth inhibition, % (no concentration beside the values). 330,000 compounds, 0.54% hits;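 active = z-score under -3 and OD600 up to 0.15 on both plates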;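 also: plate controls were untreated wells for no effect and antibiotic for full effect; wells of about 80 µL received 100 nL stock; the first replicate is given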
BJeLR lethal: BJeLR cell viability loss; BJeLR (HRASV12) viability, CellTiter-Glo ATP luminescence, 48 h; reference of the scale not given here; inhibition, % (concentration not given with the values); 300,000 compounds, 0.17% hits;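 active = replicate mean above 50%; inconclusive = above 50% but judged a plate artefact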;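 also: 50 nL library stock added to about 25 µL; numbers are from one replicate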
Autofluor counter: flagged as autofluorescent in microsphere protease counterscreen | compound autofluorescence counterscreen, microsphere flow cytometry; active compounds read high | fluorescence intensity (concentration not given with the values) | 360,000 compounds, 3.1% hits | AID 624483;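 active = at least 3 SD above the mean of all compounds, about 16000 in these data; inconclusive = too few beads counted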;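 also: 100 nL of 1 mM stock went into each well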
Mtb hypoxia inh growth: second read-out of Mtb hypoxia inh, no call of its own (marks repeat the call); growth inhibition, %; measured here: M. tuberculosis growth (absorbance);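 0% = vehicle and 100% = reference antibiotic; read after six days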
* marks the source's active call; other numbers are inactive results; ? = inconclusive; · = no result given. Hits appear at their usual frequency (roughly 4% active in at least one column).

SMILES	PrP 5UTR inh	Mtb hypoxia inh	Mtb hypoxia inh growth	RN4220 kill	Sa ugtP lethal	BJeLR lethal	Autofluor counter
CC(CN1CCCC1)OC(=O)Cc1ccc(Cl)cc1 (centres undefined)	-10	8	2	3.6	7	-4	·
Cc1ccn2cc(CNC(=O)c3ccc(Br)o3)nc2c1	-10	5	11	0.4	-2	6	6225
CCSc1nnc(NC(=O)C2Cc3ccccc3CN2C(=O)c2ccco2)s1 (centres undefined)	-18	·	·	-1.3	3	0	3357
CCCC(C)C(=O)Nc1nc(C)c(-c2csc(Nc3ccc(Cl)cc3)n2)s1 (centres undefined)	-20	8	12	-12	-63	-1	3708
Cc1nc2ccccc2c(=O)n1/N=C/c1ccc(O)c(O)c1O	-47	·	·	·	·	14	4281
O=C(Nc1ccccn1)c1ccc(NC(=O)c2ccco2)cc1	-92	2	9	-5.6	-17	1	5851
CN(Cc1cnccn1)C(=O)C1CCC(=O)N(CCc2ccccc2)C1 (centres undefined)	-11	8	-6	7.0	-3	4	5947
COc1ccc(N(CC(=O)NN=C2CCCC2)S(=O)(=O)c2ccccc2)cc1Cl	-15	-1	-1	6.2	15	10	2550
COc1ccc(/C=C2\SC(N3CCCCC3)=NC2=O)cc1OC	-2	-2	-19	-0.4	-5	1	4056
C=CCNC(=S)NN=Cc1ccc(C)c([N+](=O)[O-])c1	·	3	1	4.2	-2	·	·
O=C(Nn1cnnc1)c1ccc(Cl)cc1	-17	8	8	3.0	3	2	3113
Cc1ccc(Cl)c(OCC(=O)Nc2sc(C)c(C)c2C#N)c1	-36	7	2	5.4	-8	-2	10066
CC(C)c1ccc(NC(=O)CNS(=O)(=O)c2ccc(F)cc2)cc1	-2	6	0	4.6	11	2	4566
O=C(NC1CCN(Cc2ccccc2)CC1)c1cc(-c2ccccn2)nc2ccccc12	-8	10	9	3.6	1	-5	3075
COC(=O)NNC(=O)C1CCC(C)CC1 (centres undefined)	-4	-2	2	7.5	3	1	2892
CCOC(=O)c1c(N)c2cc([N+](=O)[O-])cnc2n1C	·	21	3	1.5	4	-10	6320
COc1cc(OC)cc(C(=O)NNC(=S)Nc2ccccc2OC)c1	3	-3	6	-0.4	1	-3	2147
CCOC(=O)Cn1ncc2c3ccccc3n(CC(=O)OCC)c2c1=O	5	-8	-13	0.2	4	-2	2837
Cc1ccc(Cl)cc1-n1c(=O)cc(N2CC(C)OC(C)C2)[nH]c1=O (centres undefined)	-7	5	7	3.3	8	-18	9865
COC(=O)C1=NN(c2ccc(OC)cc2)C2C(=O)N(c3ccccc3OC)C(=O)C12 (centres undefined)	·	17	12	6.3	8	-8	·
CCN(CC)C(=O)COCc1cc(-c2ccc3c(c2)OCO3)on1	8	-5	-2	1.9	-2	1	4268
COc1ccccc1Oc1cn[nH]c1-c1ccc(O)cc1O	-21	16	14	-1.2	-4	8	3174
O=C(Cn1nc(C(=O)O)c2ccccc2c1=O)Nc1ccc2c(c1)OCO2	-26	6	-1	0.8	0	-8	3990
O=C(/C=C/c1ccc(Br)cc1)c1ccc(NC2=NCCCS2)cc1	-20	-2	2	-11	39	-2	2484
CCOc1ccc(Cl)cc1S(=O)(=O)N1CCCC1	-8	7	11	1.0	-5	-6	10029
Cc1c(Cc2ccccc2)c(=O)oc2c(O)c(O)ccc12	-1	-1	4	19	-13	-7	4321
CC/C(=N\NC(=S)Nc1cc(C)ccc1C)c1ccc(OC(F)F)cc1	-13	·	·	·	·	8	2273
COc1cccc(CN2CCNC(=O)C2CC(=O)NCCCC2CCCC2)c1OC (centres undefined)	5	4	10	4.6	5	-1	4703
O=C(CCN1C(=O)S/C(=C\C=C\c2ccccc2)C1=O)Nc1ccc(O)cc1	-64	10	-2	8.1	7	-4	5225
COC(=O)COc1ccc(/C=C2\SC(=O)N(CC(=O)Nc3ccccc3F)C2=O)cc1	-19	3	-3	5.8	5	1	2994
Cc1ccc(/C(COc2ccccc2O)=N\O)cc1	-13	·	·	·	·	7	7069
O=C(Cc1cccs1)NNC(=O)C12CC3CC(CC(C3)C1)C2	-16	12	9	6.2	16	0	4386
CN(C(=S)NC1=CCS(=O)(=O)C1)C1CCCCC1	-28	6	14	0.8	3	-10	10143
O=C1C(=O)N(CCCN2CCOCC2)C(c2ccc(F)cc2)/C1=C(\O)c1ccc2c(c1)OCCO2 (centres undefined)	-16	8	-2	2.3	5	12	5131
COc1ccc(C=NN2C(=O)CN(C(=O)c3ccccc3)C2c2ccc(OC)cc2)cc1 (centres undefined)	·	6	17	4.2	9	·	·
Cc1ccccc1CNC(=O)Nc1cccs1	-32	4	8	-7.6	-1	·	3152
CN1C(=O)N(C)C2(C)CC1(C)N(C)C(=O)N2C	-17	-4	-6	2.7	11	-8	·
O=C(O)COc1ccc(C=Nn2c(COc3ccccc3)nc3ccccc3c2=O)cc1	·	9	5	9.4	-4	·	·
CCCCCC(=NO)c1c[nH]c2ccccc12	·	5	11	2.4	-4	·	·
O=C(N/N=C/c1ccccc1)c1ccc(OCc2ccccc2)cc1	-35	·	·	·	·	-2	3607
COc1ccc(N(C(=O)c2ccco2)S(=O)(=O)c2ccc(F)cc2)cc1	-22	·	·	-3.9	-4	1	4860
CC(=NNC(=O)C(N)=O)c1ccc(O)cc1O	·	-6	10	-2.1	1	·	·
COc1ccc(OCCCC(=O)OCC(=O)Nc2sccc2C(N)=O)cc1	3	2	11	-0.4	-1	-4	6382
CCOc1cc(/C=C2\C(=O)N(CCc3ccc(OC)c(OC)c3)C(C)=C2C(=O)OC)ccc1O	-21	1	3	8.5	7	-6	2494
COc1cccc(NC(=O)NNS(=O)(=O)c2ccc(OC)cc2OC)c1	-13	7	1	2.5	5	2	5878
COc1ccc(-c2sc3ccc(OC)cc3c2C#CCCO)cc1	-35	·	·	·	·	0	4131
CC(CCc1ccc2c(c1)OCO2)=N/N=C1/NC(=O)CC(C(=O)Nc2ccc(C(=O)O)cc2)S1 (centres undefined)	·	11	-3	0.2	-3	·	·
O=C(Cc1cccs1)NC1(C(=O)NC2CCCC2)CCCCC1	-20	-6	-14	1.7	3	-12	2505

Profiles, quoted from the list. Order of values: PrP 5UTR inh | Mtb hypoxia inh | Mtb hypoxia inh growth | RN4220 kill | Sa ugtP lethal | BJeLR lethal | Autofluor counter
COc1ccc(N(C(=O)c2ccco2)S(=O)(=O)c2ccc(F)cc2)cc1 is entered as -22 | · | · | -3.9 | -4 | 1 | 4860
COc1ccc(OCCCC(=O)OCC(=O)Nc2sccc2C(N)=O)cc1 is entered as 3 | 2 | 11 | -0.4 | -1 | -4 | 6382
O=C(O)COc1ccc(C=Nn2c(COc3ccccc3)nc3ccccc3c2=O)cc1 is entered as · | 9 | 5 | 9.4 | -4 | · | ·
CCCCCC(=NO)c1c[nH]c2ccccc12 is entered as · | 5 | 11 | 2.4 | -4 | · | ·
O=C(Cc1cccs1)NC1(C(=O)NC2CCCC2)CCCCC1 is entered as -20 | -6 | -14 | 1.7 | 3 | -12 | 2505

(list continues)
SMILES	PrP 5UTR inh	Mtb hypoxia inh	Mtb hypoxia inh growth	RN4220 kill	Sa ugtP lethal	BJeLR lethal	Autofluor counter
COc1ccc(/C=C\C(=O)NCC(=O)N/N=C/c2cccc(OC)c2O)cc1	-13	·	·	·	·	10	5911
COC(=O)c1ccc(C2NC(=O)c3c(sc(C)c3C)N2)cc1 (centres undefined)	-18	-11	-3	-0.5	-12	-13	6744
COC(=O)c1ccc(NC(=O)C(=O)N2CCN(C(=S)Nc3cccc(C)c3C)CC2)cc1	-21	11	12	4.0	3	-2	2012
Clc1ccc(-c2nnc(C34CC5CC(CC(C5)C3)C4)o2)cn1	-21	·	·	-4.2	8	13	2763
CCCCC(=O)Nc1cccc(NC(=O)c2ccc3c(c2)OCO3)c1	-5	-2	-4	0.6	-6	-1	?
Cc1csc(N/N=C\c2cccnc2)n1	-37	·	·	·	·	2	4626
Cc1nc2ccccc2c(=O)n1-c1cccc([N+](=O)[O-])c1	-14	12	9	2.1	7	-5	4218
O=C(CSc1nnc(C2COc3ccccc3O2)o1)N1CCN(c2ccccc2)CC1 (centres undefined)	-32	12	10	2.4	13	1	4167
Cc1cc(C)n2nc(SCC(=O)NC3CCCCC3C)nc2n1 (centres undefined)	-9	-7	-4	3.0	2	-4	5637
COCC(=O)OCC(=O)Nc1ccccc1-c1ccccc1	-17	4	0	6.3	9	2	4050
O=C(COC(=O)CCS(=O)(=O)c1ccc(F)cc1)NC1CCCCC1	·	4	3	1.3	-3	·	5384
O=C(Nc1ccc(Cl)cc1)c1nc[nH]c1C(=O)NCc1ccccc1	1	-12	2	-8.4	-37	·	2962
O=C(CCCN1C(=O)c2ccccc2C1=O)NC1=NCCS1	-12	-82	-17	-1.6	0	-10	3683
Cc1cccc(CSc2ncnc3ccccc23)c1	-12	-5	0	7.0	-2	3	3957
O=C(Nc1cccc(-c2nc3ccccc3c(=O)o2)c1)c1ccccc1	-14	22	18	9.4	6	3	3988
CCOC(=O)C1(C)NC(c2cccs2)C2C(=O)N(c3ccc(C)cc3)C(=O)C21 (centres undefined)	-22	-4	-8	6.7	4	-14	2674
CCOC(=O)c1c(C)[nH]c(C)c1C(=O)CSc1nncs1	-28	4	9	3.7	9	-9	5036
COc1ccc(CNC(=O)CNC(=O)c2cccs2)c(OC)c1	-10	10	3	2.6	10	-8	6043
Cc1ccc(-n2cnc3c(sc4nccc(N(C)C)c43)c2=O)cc1	-15	·	·	-3.0	-12	9	4572
CC(Oc1ccccc1)C(=O)Nc1ccc(S(=O)(=O)N2CCN(C)CC2)cc1 (centres undefined)	-6	11	-3	1.9	-1	0	?
CC1(C)Cc2cccc(C(=O)Nc3ccncc3)c2O1	-17	5	1	3.0	2	2	4436
CC(OC(=O)c1ccccn1)C(=O)Nc1ccc2c(c1)OCCO2 (centres undefined)	-20	-2	-2	2.1	1	·	8696
CCOC(=O)C(Cc1ccc(O)cc1)NC(=O)CCc1c[nH]c2ccccc12 (centres undefined)	1	15	14	2.3	-1	8	3899
COc1ccc(CC(=O)N2CCN(c3ccccc3)CC2)cc1	-17	18	9	3.0	8	-1	3260
N#CCC(=O)Nc1ccc(C(=O)NNC(=O)CCN2CCN(c3ccccc3)CC2)cc1	-13	-2	5	-2.4	-3	·	3997
COc1ccc(C=NNC(=S)Nc2ccccc2)cc1COc1cccc(C)c1C	·	1	-3	-2.4	-3	·	·
Cc1ccc(C(=O)N2CCOCC2)cc1S(=O)(=O)Nc1cccc(C)c1C	-14	·	·	-14	-8	4	2538
COc1ccc2ccccc2c1C=NNC(=S)NCCN1CCOCC1	·	-5	6	-2.7	-10	·	·
O=C(Cn1cnc2c(nnn2Cc2ccc(Cl)cc2)c1=O)c1ccccc1	-11	4	11	-17	-6	-28	5437
Cc1c(C(=O)NCc2cccnc2)sc2ncn(CC(=O)N3CCCCC3C)c(=O)c12 (centres undefined)	-9	·	·	2.5	2	1	2448

Some entries already given with just Mtb hypoxia inh, Mtb hypoxia inh growth and RN4220 kill:
mol | Mtb hypoxia inh | Mtb hypoxia inh growth | RN4220 kill
CN1C(=O)N(C)C2(C)CC1(C)N(C)C(=O)N2C | -4 | -6 | 2.7
Cc1ccc(C(=O)N2CCOCC2)cc1S(=O)(=O)Nc1cccc(C)c1C | · | · | -14
CCN(CC)C(=O)COCc1cc(-c2ccc3c(c2)OCO3)on1 | -5 | -2 | 1.9
CCOC(=O)c1c(N)c2cc([N+](=O)[O-])cnc2n1C | 21 | 3 | 1.5
